Screening results from PubChem.
NS1 inh – qHTS Assay for Inhibitors of Influenza NS1 Protein Function. Potency, µM (doses to about 46.1 µM), inactives show at the top dose activity, positive = more growth. S. cerevisiae slowed by influenza A NS1, growth recovery by OD600. 270,000 compounds, 0.4% hits; active means well fitted rising curve with a large enough effect; inconclusive means small, poorly fitted or top-dose-only effect; inactive means no such curve, though single readings can be large or run the other way; further: nearly all actives have a fitted effect of over 50% in size
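A cell-based growth assay was used: compounds that relieve NS1-induced slow growth of budding yeast raise OD600. Assay medium was yeast nitrogen base with ammonium sulphate and -URA supplement, pH 6.0, with 2% galactose.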
Marburg entry inh – qHTS for inhibitors of binding or entry into cells for Marburg Virus. Marburg virus pseudotyped entry inhibition, cell reporter; control for the full effect not named in the record; about a third of the inactives were read at about 46 µM. Potency, µM (doses to about 37.8 µM), for inactives: at the top dose activity change, negative = inhibition, actives largely listed as inhibitors. 300,000 compounds, 1.8% hits; active = well fitted inhibition curve with a large enough effect; inconclusive = small, poorly fitted or top-dose-only effect, or effect the other way; inactive = flat fitted curve, though single readings scatter; tested in HEK293 cells; about a fifth of its hits are not listed in these tables; further: on the % scale 0 is the no-effect control and ±100 the full control effect; luciferase read-out
StopGo reporter – High Throughput Screening for Foot and Mouth Disease Virus Antivirals. 410,000 compounds, 1.2% hits. Potency, µM (top dose mostly 57.9 µM), for inactives: top-dose signal change, negative = less light. human cells with a luciferase reporter of 2A StopGo recoding; control for the full effect not named in the record. AID 1159524, 2015; active = well fitted falling curve with a large enough effect; inconclusive = small, poorly fitted or top-dose-only effect; inactive = no such curve, though single readings can be large or run the other way; tested in HEK293T cells; further: on the % scale 0 is the no-effect control and ±100 the full control effect; nearly all actives have a fitted effect of over 45% in size; luciferase light after 4 h
RE007 growth inh – qHTS Assay for Inhibitors of the HIV-1 protein Vpr; S. pombe RE007 Vpr strain, BacTiter-Glo ATP luminescence, 24 h; control for the full effect not named in the record; Potency, µM (doses to about 92.2 µM), for inactives: top-dose activity change, negative = less growth; 360,000 compounds, 0.21% hits; active = well fitted falling curve with a large enough effect; inconclusive = small, poorly fitted or top-dose-only effect; inactive = no such curve, though single readings can be large or run the other way;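 further: on the % scale 0 is the no-effect control and ±100 the full control effect; nearly all actives have a fitted effect of over 50% in size; the assay follows cell death caused by Vpr and the record does not say whether a fall means rescue or toxicity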
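Fission yeast RE007 carrying one integrated HIV-1 vpr copy, seeded at OD 0.01 in PMG+AL medium with 23 nL pinned compound. Grown 24 h at 30 degrees; viability read by BacTiter-Glo luminescence after 5 min.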
Cruzain inh noDet – qHTS Assay for Promiscuous and Specific Inhibitors of Cruzain (without detergent). 200,000 compounds, 2.3% hits. purified cruzain, Z-FR-AMC fluorescence, no detergent. Cruzipain (Trypanosoma cruzi), P25779. Potency, µM, for inactives: max response, negative = inhibition, usual class: inhibitors;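 further: plate controls were enzyme without inhibitor for no effect and buffer without enzyme for full effect; nearly all actives have a fitted effect of over 40% in size; top concentration of the series not given in the record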
Target sequence (P25779 123-467 limits assumed): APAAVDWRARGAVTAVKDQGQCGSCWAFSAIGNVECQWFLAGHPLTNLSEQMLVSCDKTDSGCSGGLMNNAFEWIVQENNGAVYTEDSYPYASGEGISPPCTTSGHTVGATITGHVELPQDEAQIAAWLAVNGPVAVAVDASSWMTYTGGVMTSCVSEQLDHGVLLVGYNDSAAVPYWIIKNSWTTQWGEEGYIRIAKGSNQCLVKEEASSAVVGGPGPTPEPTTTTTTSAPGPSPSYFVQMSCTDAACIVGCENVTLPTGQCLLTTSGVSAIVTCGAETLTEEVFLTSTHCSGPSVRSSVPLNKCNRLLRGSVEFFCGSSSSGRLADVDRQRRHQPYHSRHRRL
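Purified cruzain at 1.5 nM, pre-incubated 15 min with compound at room temperature in 100 mM sodium acetate pH 5.5, 5 mM DTT, 0.00005% Triton X-100. Reaction started with 2 uM Z-FR-AMC; AMC fluorescence increase over 60 s gives rate.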
Lassa entry inh – qHTS for Inhibitors of binding or entry into cells for Lassa Virus; Lassa virus pseudotype entry inhibition, cell reporter; control for the full effect not named in the record; Potency, µM (titrated, usually from 37.9 µM), without a hit: at the top dose activity change, negative = inhibition, hits mostly inhibitors; 300,000 compounds, 1.2% hits; active means well fitted inhibition curve with a large enough effect; inconclusive means small, poorly fitted or top-dose-only effect, or effect the other way; inactive means flat fitted curve, though single readings scatter; tested in HEK293 cells; further: on the % scale 0 is the no-effect control and ±100 the full control effect; nearly all actives have a fitted effect of over 50% in size; luciferase read-out
Cruzain Triton – qHTS Assay for Promiscuous and Specific Inhibitors of Cruzain (with detergent); 200,000 compounds, 0.43% hits; AID 1478, 2009; Potency, µM, for the others: max response, negative = inhibition, actives largely listed as inhibitors; Cruzipain (Trypanosoma cruzi), P25779; purified cruzain, Z-FR-AMC fluorescence, 0.01% Triton;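 further: plate controls were neutral wells for no effect and buffer without enzyme for full effect; nearly all actives have a fitted effect of over 40% in size; top concentration of the series not given in the record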
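Enzyme 1.5 nM, Z-FR-AMC 2 uM, NaOAc 100 mM pH 5.5, DTT 5 mM, Triton X-100 0.01%; 15 min RT compound preincubation; kinetic ex360/em450, 60 s delta.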
SARS PLpro yeast – qHTS of Yeast-based Assay for SARS-CoV PLP | AID 485353, 2010 | Potency, µM (highest dose often 32.9 µM), without a hit: at the highest dose activity, positive = growth rescue | 330,000 compounds, 0.19% hits | S. cerevisiae expressing SARS-CoV PLpro, growth rescue; control for the full effect not named in the record; active means well fitted rising curve with a large enough effect; inconclusive means small, poorly fitted or top-dose-only effect; inactive means no such curve, though single readings can be large or run the other way; further: 0% is about no effect; nearly all actives have a fitted effect of over 55% in size; growth read by luminescence after 48 h
An asterisk follows results filed as active; ? = inconclusive; / = not tested or not shown; & = joins results of further samples; [ ] = dose if it differs, or a comment. Unless noted, the call rests on the fitted dose curve; in most records, active means well fitted curve in the direction sought with a large enough effect; inconclusive means small, poorly fitted or top-dose-only effect, or another doubt; inactive means no such curve, though single readings can be large; an effect the other way counts as inactive or inconclusive. Potency means the concentration at half of the fitted maximal effect.

SMILES	NS1 inh	Marburg entry inh	StopGo reporter	RE007 growth inh	Cruzain inh noDet	Lassa entry inh	Cruzain Triton	SARS PLpro yeast
Cc1ccc(CN(Cc2cccn2-c2nnc(N3CCCC3=O)s2)C(=O)Nc2cc(C)cc(C)c2)cc1	/	11%[46.1 µM]	-9%	/	-8%	/	-2.1%	/
COc1ccc(-c2ccc(C3C(C#N)=C(N)Oc4n[nH]c(C)c43)o2)cc1 (configuration not stated)	-9%	16%	9%	-2%	-17%	-7%	-16%	-26%
N#Cc1c(-n2ncnc2-c2ccccc2Cl)sc2c1CCCCC2	/	/	-27%	/	16%	25%[46.1 µM]	1.4%	/
O=C(CCCn1c(=O)[nH]c2ccccc2c1=O)NC1CCCCCC1	3%	13%	10%	-8%	7%	4%	-2.6%	2%
O=C(Nc1cccc(Cl)c1)N(CCN1CCOCC1)Cc1ccccc1F	-13%	12%	7%	9%[3.69 µM]	0%	4%	-2.0%	-5%
Cc1sc(NC(=O)c2ccco2)c(C(c2cccnc2)N2CCN(C)CC2)c1C (configuration not stated)	-11%	?	13%	-29%	-5%	?	-1.2%	-3%
COc1ccccc1NC(=O)CC(NC1CCCCC1)C(=O)O (configuration not stated)	-1%	7%	-12%	18%	0%	16%	-1.3%	1%
CC(=C/C(=O)O)/C=C/c1ccc([N+](=O)[O-])cc1	-25%	?	3%	-18%	-2%	28%	-7.3%	-13%
CCSc1nnc(NC(NC(C)=O)(C(F)(F)F)C(F)(F)F)s1	12%	?	-15%	3%	-6%	-3%	-1.9%	-10%
CCOC(=O)c1csc(-c2ccc(OC)c(OC)c2)n1	/	25%[46.1 µM]	30%[activator]	13%	/	9%[46.1 µM]	/	-1%
COc1ccc(NC(=O)CSc2nnc(-c3ccccc3C)n2N)cc1OC	12%	-10%	-12%	-10%	-10%	4%	4.6%	2%
COc1ccccc1OC(C)C(=O)N1CCc2ccccc21 (configuration not stated)	/	-1%	6%	12%	/	7%	/	-4%
CCCCCCC1CC(C)(C(=O)CNc2nncs2)OC1=O (configuration not stated)	-4%	-2%[46.1 µM]	-3%	9%	4%	13%	-3.7%	-6%
COC(=O)c1c(NC(=O)c2ccccc2C(=O)O)sc2c1CCCC2	/	/	-23%&1%	10%	10%	-9%[46.1 µM]	-11%	/
COc1cccc(NC(=O)Cn2nnc(C(=O)Nc3ccccc3)c2N)c1	-2%	-18%	-4%	16%	-9%	10%	1.1%	-2%
Cc1cccc(NC(=O)CSc2cc(C)c3ccccc3n2)c1	/	2.2µM*	-26%	/	-15%	?	-5.8%	/
CCc1ccc(NS(=O)(=O)c2ccc3[nH]cc(C(=O)NCCc4cccc(C)c4)c(=O)c3c2)cc1	/	/	12%	/	1%	12%[46.1 µM]	-0.7%	/
OC(COc1ccccc1)Cn1c2ccccc2c2ccccc21 (configuration not stated)	-6%	-9%	-1%	?	13%	0%	-6.3%	-70%
Cn1ncc(Br)c1NC(=O)Nc1ccc(Cl)cc1	1%	/	28%	-6%	/	/	/	1%
CCN1C(=O)C2C(c3ccccc3F)NC(Cc3ccc(O)cc3)(C(=O)OC)C2C1=O (configuration not stated)	5%	3%	-30%	25%	3%	-10%	0.1%	-7%
O=C(CN1C2=NCCCN2c2ccccc21)c1ccc([N+](=O)[O-])cc1	-10%	?	-4%	7%	/	-14%	/	3%
CCOc1ccc(C2=Cc3cc(OC)c(OC)cc3C(=C(Cl)Cl)O2)cc1	12%	0%	/	/	6%	/	-13%	2%
CCCCOC(=O)C1Cc2ccccc2C(=O)O1 (configuration not stated)	-11%	2%	-20%	-10%	3%	0%	2.7%	1%
CCOC(=O)C1=C(CS(=O)(=O)c2ccc(Br)cc2)NC(=O)NC1c1ccccc1 (configuration not stated)	/	3%[46.1 µM]	-9%	/	-2%	-10%[46.1 µM]	-5.3%	/
COc1ccc(C2=NS(=O)(=O)N(C)C(C(=O)Nc3cc(C)ccc3O)=C2)cc1OC	9%	?	?	-3%	6%	5%[46.1 µM]	-2.0%	-2%
C/C(CCc1ccccc1)=N/NC(=O)C(=O)NC(C)c1ccccc1 (configuration not stated)	/	3%[46.1 µM]	12%	-15%	/	/	/	2%
O=C(Nc1ccc2nsnc2c1)C1CC1	-4%	7%[46.1 µM]	11%	8%	/	18%	/	-1%
CCN1C(=O)[C@H]2[C@@H](c3ccc(OC)cc3)N3C(=O)CN(CC4CC4)C(=O)[C@@]3(C)[C@H]2C1=O	-2%	/	-8%	13%	/	/	/	-10%
Cc1ccc(C)c(N2CCN(C(=O)c3cnn(C(C)(C)C)c3C3CCN(C(=O)OC(C)(C)C)CC3)CC2)c1	/	/	?	/	-23%	?	-1.9%	/
CCc1c(C)nc2c(OC)cccc2c1SCCC(=O)O	-3%	-19%&-19%	0%	-3%	-6%	16%	-0.4%	7%
CCOC(=O)C1(CCOc2ccccc2)CCN(Cc2cc(OC)c(O)c(OC)c2)CC1	9%	/	?	1%	/	/	/	0%
COc1ccc(-c2coc3cc(O)ccc3c2=O)cc1	/	/	28%&-5%	-6%[18.4 µM]	2%&5%	/	4.1%&4.4%	/
COc1ccc(OC)c(C2=NOC(C(=O)Nc3c(C)n(C)n(-c4ccccc4)c3=O)C2)c1 (configuration not stated)	29%&-2%	0%	-5%	1%	/	/	/	2%
Fc1ccc(-n2ncc3c(Nc4ccc(Oc5ccccc5)cc4)ncnc32)cc1	/	/	-10%	/	?	27%[46.1 µM]	1.2%	/
COC(=O)c1ccc(NC(=O)C2CCN(C(=O)c3ccc(F)cc3)CC2)cc1	/	4%[46.1 µM]	0%	/	0%	9%[46.1 µM]	-4.8%	/
COc1ccc(-n2c(CNC(=O)c3cc(OC)c(OC)c(OC)c3)n[nH]c2=S)cc1	-12%	16%	-13%	-10%	3%	15%	3.8%	-14%
Cc1ccc2cccc(NC(=O)c3ccc(OC(C)C)cc3)c2n1	/	12%[46.1 µM]	10%	/	-2%	11%[46.1 µM]	3.7%	/
O=c1oc2cc(O)ccc2c2c1CCCC2	-45%	1%	9%	-8%	-21%	-1%	-11%	-8%
CC(N)c1cccc(Cl)c1Cl (configuration not stated)	-3%	?	/	/	4%	23%	6.1%	/
O=S(=O)(NCCc1csc2nc(-c3ccc(Cl)cc3)nn12)c1ccc(Oc2ccccc2)cc1	/	/	-28%	/	-2%	-9%[46.1 µM]	-0.1%	/
COC(=O)C(C)Oc1cc(C)ccc1COc1ccc(-n2nc(C)n(C(F)F)c2=O)cc1 (configuration not stated)	/	0%[46.1 µM]	-6%	-16%	/	4%[46.1 µM]	/	/
O=c1cnnc(N/N=C/c2c[nH]c3ccccc23)[nH]1	/	-26%[46.1 µM]	13%	-17%	/	0%	/	0%
Cc1nonc1NC(=O)OC1CCCCC1	-32%	0%	0%	0%	6%	-4%	3.3%	-3%
CCN(CC)CCNC(=O)c1c2c(nc3ccccc13)C(=O)N(C1CCCCC1)C2	/	/	-7%	/	-8%	-9%[46.1 µM]	-3.2%	/
OCCNc1cnc2ccccc2n1	/	0%[46.1 µM]	23%	-15%	/	3%	/	0%
O=C(CC1OC(=O)c2ccccc21)c1ccco1 (configuration not stated)	?	?	?	-2%	2%	-3%	2.5%	-6%
O=C(Nc1nnc(C2CCCCC2)s1)c1ccco1	-43%	?	48%[activator]	-11%	-15%	3%	4.7%	5%
Cc1[nH]c(=O)nc(SCc2cccc(Cl)c2)c1C#N	12%	3%[46.1 µM]	-16%	-15%	/	13%	/	-2%
COc1ccc(CC(=O)N/N=C\c2cc(Br)c(O)c(Br)c2)cc1	-10%	/	-2%	4%	/	/	/	0%
COc1cc2nc(C3CCC3)n(NC(=O)COc3ccccc3)c(=O)c2cc1OC	3%	-12%	-8%	4%	23%	-2%	-1.4%	0%
O=C(c1ccco1)N1CCN(C(=O)c2ccc(-c3ccc([N+](=O)[O-])cc3)o2)CC1	/	?	-24%	2%	/	?	/	0%
O=C1C2CCCCC2C(=O)N1c1nccs1 (configuration not stated)	12%	9%[46.1 µM]	-12%	10%	/	5%[46.1 µM]	/	-5%
Cc1ccc(Nc2cc(=O)n(C3CCCCC3)c(=O)[nH]2)cc1C	5%	?	-2%	3%	-13%	-12%	2.9%	-3%
CCNC(=S)N/N=C/c1cccs1	2%	-11%	-2%	9%	1%	9%	-5.0%	?
Cc1cc(N2CCN(C(=O)c3ccco3)CC2)n2ncnc2n1	-1%	-6%&-6%	11%	-2%	-11%	-4%	-3.2%	-7%
CS(=O)(=O)N(CC(=O)N1CCN(Cc2ccc3c(c2)OCO3)CC1)Cc1ccc(Cl)cc1	-15%	0%	?	2%	?	9.2µM*	0.2%	8%
Cc1cc(C)n2nc(SCc3nnc(SCc4ccccc4Cl)s3)nc2n1	12%	-16%	/	0%	?	-16%	-3.2%	-4%
Cc1cc(C)c(NC(=O)c2c(C)oc3c2C2=NCCN2C=N3)c(C)c1	/	/	?	/	-2%	6%[46.1 µM]	0.4%	/
COc1ccc(-c2c(N)n[nH]c2C)cc1OC	4%	3%[46.1 µM]	4%	11%	/	-10%	/	0%
Cc1ccccc1OCC(=O)Nc1ccc(S(=O)(=O)Nc2ccccn2)cc1	-20%	?	5%	-3%	-27%	-3%	-8.5%	18%
O=C(/C=C/c1cn(-c2ccccc2)nc1-c1ccc2c(c1)OCCO2)NCCO	/	2%[46.1 µM]	24%	6%	/	?	/	1%
Cc1csc(NC(=O)c2cc3c(s2)CCC3)n1	-3%	13µM*	-41%	2%	-8%	?	-11%	3%
